# Cruzain Triton = inhibitors of Trypanosoma cruzi cruzain with detergent; P25779; purified cruzain, Z-FR-AMC fluorescence, 0.01% Triton; Potency, µM, for the others: max response, negative = inhibition, usual class: inhibitors; 200,000 compounds, 0.43% hits; AID 1478;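 further: plate controls were neutral wells for no effect and buffer without enzyme for full effect; nearly all actives have a fitted effect of over 40% in size; top concentration of the series not given in the record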
# Target sequence (P25779 123-467 limits assumed): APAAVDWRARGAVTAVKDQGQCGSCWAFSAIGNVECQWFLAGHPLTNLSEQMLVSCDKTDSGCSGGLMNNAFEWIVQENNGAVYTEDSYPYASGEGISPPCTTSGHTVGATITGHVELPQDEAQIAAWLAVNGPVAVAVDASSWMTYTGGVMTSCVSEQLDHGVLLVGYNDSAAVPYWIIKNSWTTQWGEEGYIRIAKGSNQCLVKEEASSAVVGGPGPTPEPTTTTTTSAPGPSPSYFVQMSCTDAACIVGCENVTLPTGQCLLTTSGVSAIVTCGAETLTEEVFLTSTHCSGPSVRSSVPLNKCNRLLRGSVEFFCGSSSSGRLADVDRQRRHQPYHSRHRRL
#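 Cruzain (1.5 nM) preincubated 15 min at RT with compound in 100 mM sodium acetate pH 5.5, 5 mM DTT, 0.01% Triton X-100. Reaction started with 2 uM Z-FR-AMC; AMC fluorescence (ex 360/em 450 nm) change over 60 s gave rate.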
# StopGo reporter = FMDV 2A StopGo reporter, luciferase signal; 410,000 compounds, 1.2% hits; Potency, µM (series often up to 57.9 µM), without a hit: at the highest dose signal change, negative = less light; human cells with a luciferase reporter of 2A StopGo recoding; control for the full effect not named in the record; AID 1159524; active = well fitted falling curve with a large enough effect; inconclusive = small, poorly fitted or top-dose-only effect; inactive = no such curve, though single readings can be large or run the other way; tested in HEK293T cells; further: on the % scale 0 is the no-effect control and ±100 the full control effect; nearly all actives have a fitted effect of over 45% in size; luciferase light after 4 h
# Lassa entry inh = blocks Lassa virus binding to or entry into cells. Lassa virus pseudotype entry inhibition, cell reporter; control for the full effect not named in the record. Potency, µM (doses to about 37.9 µM), for inactives: top-dose activity change, negative = inhibition, usual class: inhibitors. 300,000 compounds, 1.2% hits. AID 540256; active means well fitted inhibition curve with a large enough effect; inconclusive means small, poorly fitted or top-dose-only effect, or effect the other way; inactive means flat fitted curve, though single readings scatter; tested in HEK293 cells; further: on the % scale 0 is the no-effect control and ±100 the full control effect; nearly all actives have a fitted effect of over 50% in size; luciferase read-out
# MARV entry inh = blocks Marburg virus binding to or entry into cells; 300,000 compounds, 1.8% hits; Marburg virus pseudotyped entry inhibition, cell reporter; control for the full effect not named in the record; about a third of the inactives were read at about 46 µM; Potency, µM (titrated, usually from 37.8 µM), for inactives: at the highest dose activity change, negative = inhibition, usual class: inhibitors; active = well fitted inhibition curve with a large enough effect; inconclusive = small, poorly fitted or top-dose-only effect, or effect the other way; inactive = flat fitted curve, though single readings scatter; tested in HEK293 cells; about a fifth of its hits are not listed in these tables; further: on the % scale 0 is the no-effect control and ±100 the full control effect; luciferase read-out
# RE007 growth inh = less growth of the S. pombe RE007 Vpr strain; S. pombe RE007 Vpr strain, BacTiter-Glo ATP luminescence, 24 h; control for the full effect not named in the record; Potency, µM (top dose mostly 92.2 µM), for inactives: at the highest dose activity change, negative = less growth; 360,000 compounds, 0.21% hits; AID 651644; active = well fitted falling curve with a large enough effect; inconclusive = small, poorly fitted or top-dose-only effect; inactive = no such curve, though single readings can be large or run the other way;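 further: on the % scale 0 is the no-effect control and ±100 the full control effect; nearly all actives have a fitted effect of over 50% in size; the assay follows cell death caused by Vpr and the record does not say whether a fall means rescue or toxicity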
#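 Fission yeast RE007 carrying one integrated HIV-1 vpr copy, seeded at OD 0.01 in PMG+AL medium with 23 nL pinned compound. Grown 24 h at 30 degrees; viability read by BacTiter-Glo luminescence after 5 min.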
# Cruzain noTriton = inhibitors of Trypanosoma cruzi cruzain without detergent | P25779 | purified cruzain, Z-FR-AMC fluorescence, no detergent | Potency, µM, inactives show max response, negative = inhibition, usual class: inhibitors | 200,000 compounds, 2.3% hits | AID 1476;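 further: plate controls were enzyme without inhibitor for no effect and buffer without enzyme for full effect; nearly all actives have a fitted effect of over 40% in size; top concentration of the series not given in the record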
#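 Detergent-free condition (0.00005% Triton X-100) in acetate buffer pH 5.5 with DTT. 1.5 nM enzyme and compound were pre-mixed 15 min, then 2 uM Z-FR-AMC substrate added; reaction progress from fluorescence change between first and third reads (60 s).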
# NS1 inh = inhibitors of influenza NS1 protein function | S. cerevisiae slowed by influenza A NS1, growth recovery by OD600 | Potency, µM (doses to about 46.1 µM), without a hit: at the highest dose activity, positive = more growth | 270,000 compounds, 0.4% hits | AID 2326; active means well fitted rising curve with a large enough effect; inconclusive means small, poorly fitted or top-dose-only effect; inactive means no such curve, though single readings can be large or run the other way; further: nearly all actives have a fitted effect of over 50% in size
#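 Recovery from NS1-induced slow growth read by OD600 in budding yeast switched to galactose assay medium (pH 6.0, -URA) at 1:100 dilution. Compound 23 nl per well; the matching strain lacking NS1 serves as control.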
# SARS PLpro yeast = blocks SARS-CoV papain-like protease in a yeast assay; 330,000 compounds, 0.19% hits; Potency, µM (series often up to 32.9 µM), without a hit: at the highest dose activity, positive = growth rescue; S. cerevisiae expressing SARS-CoV PLpro, growth rescue; control for the full effect not named in the record; AID 485353; active means well fitted rising curve with a large enough effect; inconclusive means small, poorly fitted or top-dose-only effect; inactive means no such curve, though single readings can be large or run the other way; further: 0% is about no effect; nearly all actives have a fitted effect of over 55% in size; growth read by luminescence after 48 h
# Active calls of the source: *; ? = inconclusive; nt = not tested or not shown; & = joins results of further samples; [ ] = remark or other dose. Unless noted, the call rests on the fitted dose curve; in most records, active means well fitted curve in the direction sought with a large enough effect; inconclusive means small, poorly fitted or top-dose-only effect, or another doubt; inactive means no such curve, though single readings can be large; an effect the other way counts as inactive or inconclusive. Potency means the concentration at half of the fitted maximal effect.
SMILES,Cruzain Triton,StopGo reporter,Lassa entry inh,MARV entry inh,RE007 growth inh,Cruzain noTriton,NS1 inh,SARS PLpro yeast
CCOc1ccccc1-n1c(COc2ccccc2)nnc1SCC(N)=O,0.2%,-16%,0%,11%,-6%,-3%,-2%,4%
Cc1ccc(CN2CCN(CCC(C)C)C(CCO)C2)s1 (stereo not given),nt,-17%,6%,3%[46.1 µM],0%,nt,-3%,1%
CCOC(=O)c1sc(NC(=O)CCCCl)nc1C,-4.0%,21%,1%,?,10%,3%,-6%,-17%
Cc1oncc1C(=O)Nc1cccc2ccccc12,nt,21%,nt,nt,-2%,nt,-33%,2%
O=C(CCl)Nc1cn(-c2ccccc2)nc1-c1ccc(F)cc1,nt,16µM*,11µM*,?,-11%,nt,nt,-10%
Cc1cccc(NC(=O)c2ccc(NCCO)c([N+](=O)[O-])c2)n1,nt,4%,-18%[46.1 µM],?,4%,nt,-3%,3%
c1ccc(COc2ccc(OCCCN3CCCC3)cc2)cc1,-0.7%,-16%,?,13µM*,5%,-12%,13%,-3%
CCN(CC)c1ccc(NC(=O)COc2ccc(C#N)cc2)cc1S(=O)(=O)Nc1ccc(OC)cc1,-2.8%,87%[activator],?,?,-2%,?,?,14%
Cc1ccccc1N1CCN(C2CCCN(C(=O)c3cnsn3)C2)CC1 (stereo not given),nt,-11%,nt,nt,-13%,nt,-11%,9%
O=C(Cn1cnc2ccccc2c1=O)Nc1ccc(N2CCOCC2)cc1,nt,2%,0%,-8%[46.1 µM],19%,nt,nt,1%
Cc1cc(N2CCOCC2)n2ncc(-c3ccccc3Cl)c2n1,nt,30%,1%,?,-5%,nt,-12%,-1%
Cc1nn(CC(=O)NCCc2ccc(Cl)cc2Cl)c(C)c1[N+](=O)[O-],3.8%,-19%,1%,?,45%,2%,-5%,15%
Cc1ccc(Nc2nc(N3CCN(C)CC3)nc(N)c2[N+](=O)[O-])cc1C,-20%,nt,nt,nt,nt,15%,4%,6%
CC1=C(C(=O)Nc2ccc(C)cc2C)C(c2ccccc2)n2nc(SCC(=O)c3ccc(C)cc3)nc2N1 (stereo not given),1.2%,36%[activator],19%[46.1 µM],nt,nt,-2%,nt,nt
Cc1c(C(=O)OCC[N+]2(C)CCCCC2)oc2ccccc12,nt,-7%,-19%[46.1 µM],12%,9%,nt,-2%,1%
Cc1nn(C)cc1S(=O)(=O)Nc1ccccc1Br,nt,10%,13%,?,-1%,nt,3%,1%
COc1ccccc1C1CC(=O)Nc2cc3c(cc21)OCCO3 (stereo not given),4.9%,?,?,2.1µM*,-5%,-6%,2%,6%
O=C(O)C(c1ccccc1)C1(O)CCCC1 (stereo not given),2.7%,-10%,1%,13%,11%,1%,0%,2%
CC1C(=O)N2CCCc3cc(S(=O)(=O)N4CCN(c5cccc(Cl)c5)CC4)cc1c32 (stereo not given),nt,-13%,-11%,?,0%,nt,nt,2%
Cc1cc(C)nc(N/N=C/C=C/c2ccccc2)n1,-7.1%,19%,10%,17%,-1%,-3%,-9%,-33%
CC(Oc1ccc2c(-c3ccccc3)cc(=O)oc2c1)C(=O)NCC1CCC(C(=O)O)CC1 (stereo not given),nt,-9%&-14%,nt,nt,0%&-11%,nt,4%&18%,6%&-5%
Cn1c(SCC(N)=O)nnc1C1CCN(C(=O)NCc2ccccc2)CC1,1.1%,4%,?,-14%,17%,0%,1%,-1%
CCCNC(=O)C(=O)NCC(c1ccc2c(c1)OCO2)N1CCOCC1 (stereo not given),2.4%,2%,9%[46.1 µM],nt,nt,-7%,nt,nt
CCOCc1nnc(NC(=O)c2c(OC)cccc2OC)s1,1.6%,-2%,1%,-11%[46.1 µM],11%,0%,6%,3%
C/C=C/c1ccc(OCCOc2ccc(C=O)cc2)c(OC)c1,-5.6%,-2%,-2%,5%,-8%,-6%,6%,-1%
O=S(=O)(NCc1ccc2c(c1)OCO2)c1ccc2oc3ccccc3c2c1,nt,24%,-1%,-10%,7%,nt,nt,nt
CCOC(=O)c1c(NCC2CCCO2)c2ccccc2[nH]c1=O (stereo not given),-5.5%,-6%,1%,9%,-8%,-8%,?,-8%
O=C1c2ccccc2NC(c2cn[nH]c2-c2ccccc2)N1O (stereo not given),-3.6%,-27%,2%,-29%,25%,-2%,18%,?
COCCNC(=S)NNc1ccc(Cl)c(C(=O)O)c1,nt,-9%,nt,nt,-1%,nt,6%,0%
COc1ccc(CCn2c(-c3cc([N+](=O)[O-])cc([N+](=O)[O-])c3)nc3nc4ccccc4nc32)cc1,-2.6%,-19%,14%,?,-9%,?,24%,12%
COCCCNc1nc(N)c([N+](=O)[O-])c(NCC2CCCO2)n1 (stereo not given),nt,13%,2%[46.1 µM],-22%[46.1 µM],3%,nt,5%,2%
CN(Cc1cccc2ncccc12)C(=O)CC1C(=O)NCCN1Cc1ccc(F)cc1 (stereo not given),nt,29%,-13%[46.1 µM],6%[46.1 µM],-1%,nt,1%,0%
Cc1ccc(S(=O)(=O)NC(C)(C)CSc2ncccn2)cc1,nt,-11%,-9%,0%,17%,nt,-1%,0%
COc1ccc2[nH]c(C(=O)O)c(CCN3C(=O)c4ccc(C(=O)O)cc4C3=O)c2c1,nt,45%[activator],?,17%,-3%,nt,1%,0%
O=C1CCN(Cc2ccc([N+](=O)[O-])cc2)CCN1[C@H](CO)c1ccccc1,nt,-4%,nt,nt,-6%,nt,-5%,4%
O=C(Nc1cccnc1)c1cc2cc(Br)ccc2o1,nt,-1%,nt,nt,-10%,nt,-36%,7%
O=C(CCC(=O)N1CCN(c2ccc(F)cc2)CC1)N1CCN(c2ccc(F)cc2)CC1,nt,?,nt,nt,-1%,nt,-7%,-8%
COc1ccc(NC(=S)Nc2ccc(N(C)C(C)=O)cc2)cc1,nt,-3%,4%,1%[14.2 µM],-4%,nt,2%,0%
Cc1cc(SCC(N)=O)nc(SCC(=O)c2ccccc2)n1,-0.8%,-2%,6%,4%,19%,-19%,-2%,-3%
Cc1nn(C)c(C(=O)Nc2ccc(S(=O)(=O)NC34CC5CC(CC(C5)C3)C4)cc2)c1Br,6.4%,-19%,?,?,1%,9%,-12%,-14%
CN(C)CCNC(=O)C(=O)Nc1ccc2c(c1)N(S(=O)(=O)c1cccs1)CCC2,nt,-9%,-27%,?,-5%,nt,nt,0%
CS(=O)(=O)N1CCCC(C(=O)NCCCN2CCc3ccccc3C2)C1 (stereo not given),-0.1%,nt,8%,19%,-5%,-9%,3%,0%
CCCCC(CCC(=O)Nc1ccn(-c2ccccc2)n1)C(=O)O (stereo not given),nt,-18%,nt,nt,-11%,nt,3%,1%
Cc1nc2oc(C(=O)c3ccc(Br)cc3)c(N)c2c2c1COC(C)(C)C2,-3.2%,-7%,-10%,4%,-2%,?,-10%,4%
COC(=O)Nc1ccc(S(=O)(=O)N2CCC(C(=O)NCc3ccc4c(c3)OCO4)CC2)cc1,nt,-10%,-5%[46.1 µM],-4%[46.1 µM],6%,nt,nt,0%
C/C(CC1CC(C)(C)OC1=O)=N/Nc1nc(-c2ccccc2)cs1 (stereo not given),-27%,-7%,13%,0%,148%,?,10%,-14%
Cc1ccccc1CSCCC(=O)NCCC1=CCCCC1,-3.4%,14%,16%,?,13%,4%,-38%,2%
O=[N+]([O-])c1cccc(C(=S)N2CCN(c3ccccc3F)CC2)c1,nt,-28%,-15%,-12%[46.1 µM],-7%,nt,nt,1%
Cc1ccc(NC(=O)/C(=C\c2cccc([N+](=O)[O-])c2)NC(=O)c2cccs2)cc1,-0.5%,3%,?,?,-20%,4%,7%,-8%
O=C1CC(N2CCN(Cc3ccc4c(c3)OCO4)CC2)C(=O)N1c1cccc(Cl)c1 (stereo not given),1.1%,nt,6%,5%,-25%,1%,-3%,-10%
CCOC(=O)c1c(C)[nH]c(C)c1S(=O)(=O)NCC(=O)NCc1ccccc1Cl,-1.6%,11%,1%[46.1 µM],nt,nt,1%,nt,nt
CC(C)[C@@H](C(=O)N[C@@H](C(=O)O)c1ccccc1)N1C(=O)N2CCc3c([nH]c4ccccc34)[C@@]2(C)C1=O,nt,-19%,nt,nt,-17%,nt,?,-18%
COc1ccc(N2C(=O)c3ccccc3NC2c2ccc(OC)c(Cn3nnc4ccccc43)c2)cc1 (stereo not given),-7.3%,4%,-17%,?,-11%,-16%,8%,11%
COc1ccc(N2CCN(C(=S)Nc3cccc(C)c3)CC2)cc1,5.5%,nt,5%,21%,6%,?,11%,0%
Cc1ccc(NC(=O)COC(=O)CN2CSCC2=O)cc1C,-3.6%,6%,0%,18%,-3%,2%,-4%,7%
Cc1nn2c(=O)cc(COC(=O)C(c3ccccc3)c3ccccc3)nc2s1,-5.7%,-27%,13%[46.1 µM],nt,nt,?,nt,nt
COc1ccc(N2C(=O)/C(=C/c3ccc(C)o3)C(=O)NC2=S)cc1,nt,?,nt,nt,14%,nt,14%,-3%
O=C(NCc1ccc2c(c1)CCN2C(=O)c1ccccc1)Nc1cc(F)ccc1F,-3.2%,?,-23%[46.1 µM],nt,nt,-20%,nt,nt
O=C(N=c1ccn(-c2nc3ccccc3nc2NS(=O)(=O)c2ccccc2)cc1)c1ccccc1Cl,nt,11%,nt,nt,13%,nt,6%,1%
O=C(O)CCCCCCCCc1cn(CCc2c[nH]c3ccccc23)nn1,nt,-15%,nt,nt,?,nt,-32%,-13%
C=CCNC(=S)NNC(=O)c1ccc2c(c1)OCO2,5.4%,6%,17%,10%,7%,9%,-1%,-4%
CCOC(=O)c1cnc(-c2cccc(OC)c2)[nH]c1=O,1.3%,35%[activator],1%,1%,-3%,-1%,-12%,-5%
